Screening results as filed in PubChem BioAssay.
ALR inh = inhibitors of human ALR sulfhydryl oxidase, primary screen, biochemical, H2O2 detection, HRP-luminol luminescence, single point. actives 3.8% (n = 290,000). purified ALR, DTT oxidation. inhibition, % (no concentration beside the values);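 active means mean and each replicate at 75% or more; inconclusive means only one of the two met; inactive means neither met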;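 further: stock transfer was 7.5 nL into about 7.5 µL; 0% = neutral wells and 100% = wells with inactivated enzyme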
Target sequence (P55789 whole entry, looked up): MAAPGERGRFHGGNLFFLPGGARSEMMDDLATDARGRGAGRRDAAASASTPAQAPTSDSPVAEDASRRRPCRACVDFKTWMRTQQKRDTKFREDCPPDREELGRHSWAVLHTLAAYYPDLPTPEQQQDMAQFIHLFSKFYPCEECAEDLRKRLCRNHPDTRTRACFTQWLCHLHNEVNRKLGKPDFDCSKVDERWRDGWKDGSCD
Calb FLC = C. albicans growth inhibition with fluconazole, primary screen, CaCi-2 strain, Alamar Blue fluorescence; growth inhibition, % (no concentration beside the values); C. albicans CaCi-2 (fluconazole-resistant clinical isolate) + fluconazole, 48 h; AID 1979, 2009; actives 0.57% (n = 300,000);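 active means most replicates above 75%; inconclusive means exactly half above 75%; inactive means most below 75%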;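 further: all wells also contain fluconazole at 8 µg/ml as a sub-toxic cotreatment; 0% = median of DMSO wells and 100% = median of geldanamycin control wells; wells of about 8 µL received 7.5 nL stock; the first replicate is given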
LANA-H2A inh = blockers of LANA interaction with H2A/H2B – biochemical, FP readout, HTS, primary screen; cell-free LANA-H2A/H2B peptide, fluorescence polarization; inhibition, % (concentration not given with the values); actives 0.6% (n = 320,000); in the data active means inhibition mostly above about 10%, no sharp cut-off; inactive means mostly below about 6.7%;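 further: stock transfer was 7.5 nL into about 10 µL; 0% = median of vehicle wells and 100% = median of positive control wells; one replicate is shown; the record names a cut of 25% in any replicate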
Beta cell apopt = inhibitors of cytokine-induced beta cell apoptosis, primary screen, luminescence; INS-1E cytokine-induced death, ATP luminescence, 48 h; percent of positive-control rescue, neutral wells zero; protection from apoptosis, % (test concentration not listed); actives 0.8% (n = 300,000);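 active means all replicates at 75% or more, or half of them and the mean; inconclusive means half reach 75% but not the mean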;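 further: 0% = cytokine-treated negative control wells and 100% = positive control rescue; higher means more ATP so stronger rescue from cytokine killing; wells of about 40 µL received 100 nL stock; the first replicate is given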
rRNA inh HTS = reduced GFP signal of wild-type E. coli, primary screen, bacterial rRNA inhibitor project, GFP/RFP fluorescence, OD600, single point; E. coli WT GFP vs humanized-ribosome RFP mutants, 24 h; active compounds read low; DMSO median 0, no signal -100; GFP signal change (wild-type ribosome), % (test concentration not listed); actives 1.6% (n = 350,000); AID 720706, 2013;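 active means significant combined selectivity score with lowered wild-type GFP, culture density cut under 30%, mutant RFP and density less affected; inactive means any of these conditions unmet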; further: one replicate is shown; some compounds called inactive have numbers as strong as hits
Bfl-1 A1 inh = caspase 3/7 activation in MEF A1-2A-BIM cells, primary screen, A1 inhibitor project, cell-based, luminescence, HTS; Caspase-Glo 3/7 luminescence, 3 h; percent of clofoctol response, vehicle zero; caspase activation, % (no concentration beside the values); actives 0.066% (n = 330,000); AID 2462, 2010;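 active means over half of replicate activation scores above 10%, or exactly half above 10 with the replicate mean above 10; inconclusive means replicate mean below 10 yet half the replicates above 10; inactive means over half of replicates below 10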;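 further: wells of about 30 µL received 50 nL stock; many hits fall short of the cut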
T cruzi inh = inhibitors of intracellular T. cruzi growth, primary screen, luminescence, NIH3T3 host cells; T. cruzi beta-gal in NIH3T3, 90 h; inhibition, % (test concentration not listed); actives 1.4% (n = 300,000);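 active means mean inhibition across valid replicates above about 55%, limit read from the data; inconclusive means mean below that limit but half or more replicates reach it; inactive means mean below it, under half of replicates reach it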;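 further: signal also drops with host cell toxicity which is not excluded here; 0% = plate median of DMSO wells and 100% = zero luminescence signal; higher percent means less beta-gal luminescence so fewer parasites; stock transfer was 50 nL into about 50 µL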
B2AR ag = beta2AR agonists driving receptor internalization, primary screen, cell-based, FAP fluorogen, flow cytometry | Beta-2 adrenergic receptor (Homo sapiens), P07550 | Am2.2-beta2AR cells; reference of the scale not given here | response, % (no concentration beside the values) | actives 0.43% (n = 340,000) | AID 504454, 2011;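 active means response above a set limit, near 3 SD of response in nonfluorescent compounds, cut at about 42% in these data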;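 further: stock transfer was 100 nL into about 11 µL; a reference agonist was the positive control; negative values mostly stem from fluorescent compounds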
Target sequence (P07550 whole entry, looked up): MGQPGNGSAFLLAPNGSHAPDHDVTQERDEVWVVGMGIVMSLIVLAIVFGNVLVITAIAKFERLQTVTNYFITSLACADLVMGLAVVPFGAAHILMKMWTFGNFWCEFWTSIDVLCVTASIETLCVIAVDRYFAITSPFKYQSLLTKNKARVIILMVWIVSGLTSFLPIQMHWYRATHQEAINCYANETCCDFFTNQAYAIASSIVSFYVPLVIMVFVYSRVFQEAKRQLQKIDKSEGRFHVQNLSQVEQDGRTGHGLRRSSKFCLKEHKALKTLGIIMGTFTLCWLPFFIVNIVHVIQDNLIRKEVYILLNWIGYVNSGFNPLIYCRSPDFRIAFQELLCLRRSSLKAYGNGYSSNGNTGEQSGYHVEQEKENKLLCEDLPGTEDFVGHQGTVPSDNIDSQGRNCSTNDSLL
rRNA inh HTS OD600 = second read-out of rRNA inh HTS, no call of its own (marks repeat the call); OD600 change, %; measured here: OD600 growth;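 optical density of the mix in the first replicate; 0 = DMSO median and -100 = no signal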
rRNA inh HTS RFP = further read-out of rRNA inh HTS, marked with its call; RFP signal change, %; measured here: RFP humanized mutant strains;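 first replicate; 0 = DMSO median and -100 = no signal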
* hit, by the source's call; i = inactive; ? = inconclusive; . = not tested or not shown. The list is partial, so the mix of outcomes need not match the whole.

SMILES | ALR inh | Calb FLC | LANA-H2A inh | Beta cell apopt | rRNA inh HTS | rRNA inh HTS OD600 | rRNA inh HTS RFP | Bfl-1 A1 inh | T cruzi inh | B2AR ag
Cn1c(=O)[nH]c(=O)c2c1nc(NCCO)n2CCOc1ccccc1 | 13 | -7 | 6.1 | . | 7 | 1 | 1.3 | -0.6 | -6 | 3
O=C(NCCSc1ncc(-c2ccc(F)cc2)[nH]1)c1ccc2c(c1)OCO2 | 6 | -9 | 1.6 | -2 | -14 | -13 | 2.6 | -0.7 | 0 | -2
N#CCC(=O)Nc1ccc(C(=O)OCC(=O)NC2CCCc3ccccc32)cc1 (centres undefined) | 71 | . | -1.6 | 1 | 6 | 8 | 12 | -1.2 | . | 2
C=CCSC1=N/C(=C\c2ccc(C)o2)C(=O)S1 | 16 | 0 | -0.4 | -6 | . | . | . | -0.4 | -3 | 2
O=C(NCCc1ccccc1)C(=O)NCC1OCCN1S(=O)(=O)c1cccs1 (centres undefined) | 1 | -2 | -2.6 | -2 | -2 | -4 | 0.3 | 1.4 | -2 | 2
Cc1nn(-c2cccc(Cl)c2)nc1C(=O)O | 1 | -23 | 2.5 | 0 | -16* | -0.7* | 4.4* | -0.2 | -26 | -1
Cc1ccc(O)c(-c2cc(C(=O)Nc3ccc(S(=O)(=O)N4CC(C)OC(C)C4)cc3)[nH]n2)c1 (centres undefined) | 7 | 2 | 2.5 | 14 | . | . | . | 0.6 | 45 | 8
CN(C)C1(CNCC(O)c2ccccc2)CCCCC1 (centres undefined) | 4 | 2 | -2.8 | -5 | 10 | 10 | -0.1 | 0.4 | 2 | 5
COC(=O)c1ccc(N)c(CS(=O)(=O)c2ccc(Cl)cc2)c1 | 0 | 2 | 3.7 | -18 | -3 | -9 | -2.0 | -0.4 | 4 | 21
CCOc1ccc(N2CC(C(=O)NCc3ccc(F)cc3)CC2=O)cc1 (centres undefined) | . | -14 | 1.4 | -5 | . | . | . | 1.0 | 14 | -1
COc1ccc(C(=O)c2cn[nH]c2-c2ccc(C)cc2O)cc1 | 37 | -1 | -0.2 | 4 | 2 | -19 | 1.3 | -0.1 | -5 | 3
CC(NC(=O)C1CCC1)c1ccc2c(c1)OCO2 (centres undefined) | -1 | -27 | 1.1 | -2 | . | . | . | -0.6 | -14 | 8
COc1cc(Sc2ccc(C)cc2)c(OC)cc1N | 98* | 9 | 0.2 | 14 | . | . | . | 0.1 | 50 | 4
O=C1CN(C(=O)COC(=O)c2ccc([N+](=O)[O-])s2)c2ccccc2N1 | . | . | -4.4 | -4 | . | . | . | 0.2 | . | -9
Cc1c(N/C(=N/S(=O)(=O)c2ccc(F)cc2)c2ccccc2)c(=O)n(-c2ccccc2)n1C | 3 | 4 | -0.3 | 0 | 13 | 8 | -0.3 | -0.5 | 6 | i
CC(C)=CCC/C(C)=C/C(=O)O | . | -3 | -0.1 | 3 | . | . | . | 0.8 | -9 | 13
CCOC(=O)c1[nH]c2ccc(OC)cc2c1NC(=O)c1nonc1C | -17 | -16 | -0.3 | 4 | . | . | . | -0.4 | 11 | 0
Cc1nnc(SCC(=O)N(C)C2CCS(=O)(=O)C2)n1Cc1ccccc1 (centres undefined) | . | 36 | -0.2 | -4 | 5 | 7 | -1.8 | 0.5 | -4 | 0
CN1CCN(NC(=O)c2ccc(Cl)cc2Cl)CC1 | 7 | 29 | -4.5 | 4 | 16 | 11 | -0.8 | 0.0 | 10 | 20
Cc1ccc(C(=O)Nc2cccc(C(F)(F)F)c2)cc1NC(=O)c1[nH]cnc1C(N)=O | -3 | . | 0.5 | -1 | 0 | 2 | 0.4 | 0.3 | . | 3
CCOC(=O)C(C)Oc1ncnc2cccc(F)c12 (centres undefined) | -15 | -6 | 1.3 | 1 | 10 | 0 | 1.3 | 0.0 | -4 | 9
COc1ccc(CCNC(=O)C2CC(=O)N(c3ccc(C)cc3)C2)cc1OC (centres undefined) | 5 | 14 | 0.1 | -3 | 0 | -6 | -4.0 | 0.2 | 2 | -4
CN1CCN(C2CCN(Cc3ccc(O)c4ncccc34)CC2)CC1 | -4 | . | 11 | -12 | -29 | -33 | -21 | -0.1 | . | 0
CNC(=O)c1ccsc1NC(=O)C1CCN(S(=O)(=O)c2cccs2)CC1 | 27 | -6 | 4.2 | 2 | -9 | -9 | 4.1 | -1.7 | -8 | 13
CC(CC(=O)NCC1CCCO1)c1ccccc1 (centres undefined) | 0 | -11 | -2.8 | -6 | 11 | 15 | 2.1 | -0.6 | -7 | 5

3 of the compounds above, in markdown:
| canonical_smiles | ALR inh | Calb FLC | LANA-H2A inh | Beta cell apopt | rRNA inh HTS | rRNA inh HTS OD600 | rRNA inh HTS RFP | Bfl-1 A1 inh | T cruzi inh | B2AR ag |
| --- | --- | --- | --- | --- | --- | --- | --- | --- | --- | --- |
| CCOC(=O)C(C)Oc1ncnc2cccc(F)c12 (centres undefined) | -15 | -6 | 1.3 | 1 | 10 | 0 | 1.3 | 0.0 | -4 | 9 |
| COc1ccc(C(=O)c2cn[nH]c2-c2ccc(C)cc2O)cc1 | 37 | -1 | -0.2 | 4 | 2 | -19 | 1.3 | -0.1 | -5 | 3 |
| CN1CCN(NC(=O)c2ccc(Cl)cc2Cl)CC1 | 7 | 29 | -4.5 | 4 | 16 | 11 | -0.8 | 0.0 | 10 | 20 |

The listing picks up, starting two compounds before the break.
SMILES | ALR inh | Calb FLC | LANA-H2A inh | Beta cell apopt | rRNA inh HTS | rRNA inh HTS OD600 | rRNA inh HTS RFP | Bfl-1 A1 inh | T cruzi inh | B2AR ag
CNC(=O)c1ccsc1NC(=O)C1CCN(S(=O)(=O)c2cccs2)CC1 | 27 | -6 | 4.2 | 2 | -9 | -9 | 4.1 | -1.7 | -8 | 13
CC(CC(=O)NCC1CCCO1)c1ccccc1 (centres undefined) | 0 | -11 | -2.8 | -6 | 11 | 15 | 2.1 | -0.6 | -7 | 5
COc1ccc(NC(=O)Nc2ncn(Cc3cccc(C(F)(F)F)c3)n2)cc1OC | -58 | 8 | -1.5 | -5 | . | . | . | -0.8 | 4 | -3
COc1ccc(CN(Cc2cccnc2)C(=S)NCCc2ccccc2)cc1OC | -16 | 4 | 4.3 | -3 | . | . | . | 0.3 | 48 | -8
CCCNC(=S)N1CCN(CC)CC1 | -8 | -2 | 5.5 | -2 | . | . | . | 0.0 | -7 | 2
COc1ccc(C(C(=O)NC(C)(C)C)N(Cc2ccc(F)cc2)C(=O)CCC(=O)Nc2cc(C)on2)cc1 (centres undefined) | . | 9 | 7.2 | -6 | 5 | 11 | -2.3 | 0.4 | 10 | 4
CCCC(C(=O)NCc1ccco1)N(CC1CCCO1)C(=O)CNS(=O)(=O)c1ccc(F)cc1 (centres undefined) | -4 | 6 | 1.2 | -6 | 3 | 1 | 1.8 | -0.2 | 6 | 5
Cc1ccccc1COC(=O)CNC(=O)c1sc2ccccc2c1Cl | 0 | 8 | -4.6 | 7 | -12 | -23 | -3.1 | 0.7 | -11 | 7
Cc1ccc(CNC(=O)Nc2ccc(Cl)cc2)cc1 | 4 | -1 | -1.3 | 0 | -4 | 8 | -2.8 | 1.3 | 9 | -3
CC1CCN(S(=O)(=O)c2ccc(NC(=O)CN3CCCC(C)C3)cc2)CC1 (centres undefined) | 0 | -3 | 0.6 | 1 | . | . | . | -0.7 | -5 | -3
Cc1ccc(N2C(=O)c3ccccc3C2Nc2cccnc2)nc1 (centres undefined) | -22 | -1 | -1.1 | -8 | 5 | 10 | -1.5 | 0.4 | 32 | 10
Cc1ccc(S(=O)(=O)NCCNc2ccc(Br)c(C)c2)cc1 | -2 | . | -0.8 | 1 | -3 | -3 | 3.3 | -0.2 | . | 1
CN(C)c1ccc(/C=N/N=C/c2ccccc2O)cc1 | . | -13 | 1.2 | 0 | . | . | . | -1.1 | -1 | 6
FC(F)(F)c1ccccc1Nc1nccs1 | 39 | -4 | 6.4 | -4 | . | . | . | 0.4 | -10 | 6
O=C(CSc1nc(-c2ccccc2F)nc2nc[nH]c12)Nc1c(Cl)cc(Cl)cc1Cl | -6 | 13 | 5.2 | -1 | 11 | 8 | -3.2 | -0.2 | 5 | .
CCCCC(=O)NNC(=S)NC(=O)C(c1ccccc1)c1ccccc1 | 24 | 107* | -5.6 | 26 | -29 | -27 | -11 | 2.3 | -13 | 2
CCCCCCCCCn1cc(C(C)=O)c(=O)[nH]c1=O | . | -1 | -3.5 | 1 | . | . | . | -1.6 | -6 | 2
O=C(Cn1nnc(-c2ccc(F)cc2)n1)Nc1cccc(S(=O)(=O)N2CCCC2)c1 | 0 | . | -6.3 | 3 | -37 | -41 | -6.3 | 0.3 | . | -6
CC1(C)CC(=O)c2sc(NS(=O)(=O)c3ccc(F)cc3)nc2C1 | 0 | -8 | -3.1 | . | 5 | 3 | 1.8 | -0.4 | 5 | 8
COc1ccc(CNC(=O)C2CCN(C(=O)c3ccc(-c4ccccc4)cc3)CC2)cc1 | 41 | 5 | 4.8 | -6 | 8 | 7 | -2.1 | -0.3 | 3 | 8
CCc1cc(C(=O)NCC(c2cccs2)N2CCOCC2)sc1C (centres undefined) | -2 | . | 1.2 | -5 | 5 | -1 | -1.6 | 0.0 | -5 | -2
COc1ccc(/C=C(\C#N)C(=O)OCC(=O)NCc2ccccc2Cl)cc1 | -11 | -2 | 10 | 0 | -5 | 6 | -0.5 | -1.0 | 0 | 1
CC(=O)Oc1ccc(-c2cc3ccccc3oc2=O)cc1 | -3 | -2 | -3.3 | . | 13 | 4 | 2.4 | -1.8 | 3 | -3
CCN(CC)S(=O)(=O)c1ccc(C)c(NC(=S)N2CCN(c3ccccn3)CC2)c1 | 3 | -11 | 0.0 | 4 | 0 | 3 | 7.3 | 0.0 | 1 | 0
Cc1cc(C)c(NC(=O)CS(=O)CC(=O)NCC2CCCO2)c(C)c1 (centres undefined) | -1 | 15 | 2.7 | -3 | . | . | . | ? | -16 | -6
N#CC1=C(N)NC(SCc2ccccc2)=C(C#N)C12CCCCC2 | -7 | 20 | 1.9 | -4 | . | . | . | 1.2 | 23 | 6
COc1ccc(Cc2nc3ccc(C(=O)N4CCCC4)cc3o2)cc1OC | 1 | 8 | -2.8 | -3 | 2 | 4 | 0.6 | 0.6 | -35 | 0
CCNc1nc(NCC)nc(Nn2cnnc2)n1 | -5 | 3 | 3.1 | -5 | 10 | 4 | -5.2 | 0.2 | -3 | -4
